Source: PubChem BioAssay
PrP 5UTR inh: inhibition of PrP 5' UTR reporter expression; cell-based PrP 5' UTR mRNA reporter, plate reader; inhibition, % (test concentration not listed); hit rate 0.35% among 340,000;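 active = every replicate at 50% or more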;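 also: 0 = median of the neutral control wells; tested in H4 reporter cells; numbers are from one replicate; inactives centre near -14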
BJeLR viability: BJeLR cell viability loss | AID 1554 | inhibition, % (test concentration not listed) | BJeLR (HRASV12) viability, CellTiter-Glo ATP luminescence, 48 h; reference of the scale not given here | hit rate 0.17% among 300,000;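 active = replicate mean above 50%; inconclusive = above 50% but judged a plate artefact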;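 also: 50 nL library stock added to about 25 µL; numbers are from one replicate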
Autofluor counter: counter-screen for toxin protease inhibitors: compound fluorescence. hit rate 3.1% among 360,000. fluorescence intensity (concentration not given with the values). AID 624483. compound autofluorescence counterscreen, microsphere flow cytometry; hits give high values;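 active = at least 3 SD above the mean of all compounds, about 16000 in these data; inconclusive = too few beads counted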;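 also: 100 nL of 1 mM stock went into each well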
ugtP null kill: kills S. aureus RN4220 lacking UgtP. S. aureus RN4220 ugtP deletion, OD600 growth, 16 h; some inactives read as strong as hits. growth inhibition, % (concentration not given with the values). hit rate 0.54% among 330,000. AID 1259309;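 active = z-score under -3 and OD600 up to 0.15 on both plates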;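 also: plate controls were untreated wells for no effect and antibiotic for full effect; wells of about 80 µL received 100 nL stock; the first replicate is given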
RN4220 kill: kills Staphylococcus aureus RN4220. inhibition, % (concentration not given with the values). AID 1259311. S. aureus RN4220 growth, OD600, 16 h. hit rate 0.33% among 330,000;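 active = z-score of -3 or lower and OD600 up to 0.18 on both plates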;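 also: plate controls were untreated cells for no effect and reference antibiotic for full effect; stock transfer was 100 nL into about 80 µL; one replicate is shown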
Mtb hypoxia inh: inhibitors of hypoxia-regulated fluorescent reporter in Mycobacterium tuberculosis; hit rate 0.1% among 300,000; AID 1159583; fluorescence inhibition, % (no concentration beside the values); M. tuberculosis hypoxia-regulated fluorescent reporter, fluorescence;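 active = 35 to 45% if threefold the growth effect, above 45% if 1.5-fold the growth effect; inactive = the rest, general growth blockers included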;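 also: wells of about 50 µL received 100 nL stock; 0% = vehicle wells and 100% = reference inhibitor wells; whole bacteria with a GFP reporter of the hypoxia response; strong numbers were not always called active; many hits fall short of the cut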
Mtb hypoxia inh growth: further read-out of Mtb hypoxia inh, marked with its call; growth inhibition, %; measured here: M. tuberculosis growth (absorbance);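 0% = vehicle and 100% = reference antibiotic; read after six days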
Numbers without * were called inactive; ? = inconclusive; . = not tested or not shown. An unsorted share of the library, and some 4% of all compounds hit somewhere here.

SMILES,Autofluor counter,BJeLR viability,Mtb hypoxia inh,RN4220 kill,ugtP null kill,PrP 5UTR inh,Mtb hypoxia inh growth
CSc1ccc(S(=O)(=O)N2CCC(C(=O)NCc3ccncc3)CC2)cc1,5792,-6,-14,0.8,-1,-9,-8
CC(=O)Nc1ccc(Nc2nnc(-c3ccc(O)cc3)c3ccccc23)cc1,4107,-3,15,3.7,-3,-11,3
Nc1nonc1C(=O)OCC(=O)c1ccc(Cl)cc1,6954,11,8,-0.1,5,-11,10
Cc1ccc(-n2nc3c(c2NC(=O)C2CCCC2)CS(=O)(=O)C3)cc1,5747,9,-3,-1.4,-6,7,4
Cc1ccccc1CNC(=O)c1ccccc1NS(C)(=O)=O,3760,-4,-6,1.5,-3,-6,0
C/C(=N\Nc1ccc([N+](=O)[O-])cc1)c1ccc(-n2nncc2C(C)(C)C)cc1,2193,-7,.,.,.,-16,.
COC(=O)C1=C(C)NC(C)=C(C(=O)O[C@@H]2CCCN(Cc3ccccc3)C2)[C@@H]1c1cccc([N+](=O)[O-])c1,5982,-2,.,.,.,-11,.
C=CCN1C(=NC(=O)CCCC(=O)O)SC2CS(=O)(=O)CC21 (configuration not stated),4052,.,.,1.2,9,-12,.
Cc1ccnc2nc(C(=O)NC3=NCCS3)nn12,5852,-2,.,4.7,3,-3,.
CCCn1cc(C(CC(=O)O)C(=O)O)c2ccccc21 (configuration not stated),24400*,-4,-6,1.6,1,-86,-5
O=C1CC(c2ccc(F)cc2)c2cc3c(cc2N1)CCC3 (configuration not stated),2408,-12,.,.,.,2,.
O=C(NN=C1CCCc2c1[nH]c1ccc(Cl)cc21)c1ccncc1,.,.,-2,-9.5,12,.,9
CC(C)c1ccccc1NC(=O)c1cccc(NC(=O)c2ccccc2)c1,4928,0,.,3.1,-1,-19,.
Cc1ccc2nc(C)cc(C(=O)N/N=C/c3ccncc3)c2c1,?,4,.,.,.,-10,.
CC(NC(=O)C12CC3CC(CC(C3)C1)C2)C(=O)N/N=C/C1=C(N2CCOCC2)C(=C\c2cccc([N+](=O)[O-])c2)/CC1 (configuration not stated),1858,-11,.,.,.,6,.
Cc1cc(C)cc(NS(=O)(=O)c2ccc3[nH]cc(C(=O)N4CCc5ccccc54)c(=O)c3c2)c1,2535,7,12,0.1,40,0,10
O=C(Cc1ccccc1)N[C@@H](Cc1ccccc1)C(=O)O,4248,-6,.,.,.,-20,.
CC[C@@]1(C(=O)OC)N[C@H](CN(C)C(=O)Nc2ccc(Cl)cc2)[C@@H]2C(=O)N(C)C(=O)[C@@H]21,3505,.,3,-2.2,4,-21,6
Cc1ccc(C)c(NC(=O)N2CCCCCC2)c1,4497,3,20,0.5,6,-17,16
COc1ccccc1C1/C(=C(/O)c2ccc(C)cc2)C(=O)C(=O)N1CC(C)O (configuration not stated),2860,2,.,.,.,-22,.
O=C(NNc1cccc(Cl)n1)Nc1ccccc1,6985,-4,13,3.9,5,-21,7
Cc1ccc(N2C(=O)c3ccc(C(=O)O)cc3C2=O)cc1C,10179,-1,-5,6.3,-1,-28,4
CCCC(=O)NC1=C(C#N)C2(CCCCC2)Cc2ccccc21,3624,-3,.,2.2,4,5,.
c1cc(-c2cc3cc(N4CCOCC4)ccc3o2)cs1,3922,2,11,2.6,-11,1,12
Cn1cc(S(=O)(=O)Nc2ccc(OC(F)(F)F)cc2)c(=O)n(C)c1=O,3751,10,10,3.7,12,-13,14
CCc1ccccc1N(C(C)=O)c1nc(CCl)cs1,5081,-3,10,5.7,12,-25,15
O=C(NC1CCS(=O)(=O)C1)OC1CCCCC1 (configuration not stated),11037,-1,5,-0.3,12,-11,3
CC1CCCC(C(=O)O)N1C(=O)CCSC(=O)c1ccccc1 (configuration not stated),22094*,-4,10,7.8,4,-31,6
O=C(NNS(=O)(=O)c1ccccc1)c1cccnc1,6408,-9,4,2.7,6,-1,10
CCOc1ccc(C=NN(C)c2ccccc2)cc1OC,.,.,9,9.7,17,.,13
Cc1ccccc1NC(=O)c1ccc2ccccc2c1,.,16,7,8.4,-2,-38,3
COc1ccccc1NS(=O)(=O)c1cc(NC(=O)c2ccc3ccccc3n2)ccc1Cl,2505,-13,3,2.5,5,-4,-1
Cc1nn(C)cc1/C=N/n1nnnc1N,17300*,-10,.,.,.,-69,.
Cc1ccc(NC(=O)c2nc[nH]c2C(=O)N2CCc3ccccc3C2)cc1,3169,.,18,8.3,-3,9,9
O=C(Cn1cnc2ccc(Cl)cc2c1=O)c1cccs1,2654,-12,17,-12,1,-12,0
O=C(c1ccco1)N1CCN(Cc2nc3ccccc3c(=O)n2-c2ccc(F)cc2)CC1,22917*,14,6,4.2,1,-27,8
CC(=O)c1ccc(NC(=O)Cc2cccs2)cc1,3432,-6,-1,-2.1,-1,-19,4
Cc1c(C(=S)NC(=O)C2CC2)c(=O)n(-c2ccccc2)n1C,4538,-2,3,1.2,5,38,1
O=C(CSc1nc2ccccc2c(=O)n1-c1ccccc1F)NC1CCS(=O)(=O)C1 (configuration not stated),4011,.,-11,-2.1,-5,-25,0
Cc1ccc(NC(=O)c2ccco2)cc1C,4795,-1,22,4.1,1,-126,15
O=C(Nc1nc2ccccc2n1Cc1ccc(Cl)cc1)c1ccco1,9315,-11,6,5.6,14,-4,2
CC(=NOCc1ccccc1)c1c(O)cc(C(C)C)n(-c2ccccc2)c1=O,.,.,-2,-0.6,16,.,-9
CCOC(=O)c1ccc(NC(=O)Cn2cc3c(n2)CCC(C)C3)cc1 (configuration not stated),5558,-3,.,0.7,10,-35,.
Cc1cc(-c2cccnc2)c(C#N)c(SCC#N)n1,9237,-1,16,1.7,1,-43,5
COCc1cc(C)nc(OCC(=O)N/N=C/c2ccccc2)c1C#N,2137,-4,.,.,.,-17,.
O=C(NN=Cc1ccco1)c1ccccc1OCc1ccc(Br)cc1,.,.,-3,1.0,-3,.,1
COc1ccc(C(=O)OC2CC3CCC(C2)[N+]3(C)[O-])cc1OC (configuration not stated),3101,-1,-3,2.4,1,-9,1
COc1cccc(CC(NC(C)=O)C(=O)NC2CCN(c3c4c(nc5ncnn35)CCC4)CC2)c1 (configuration not stated),4166,.,-2,-0.7,2,-25,5
CCOc1cccc2cc(C(=O)NCc3ccc(C)cc3)c(=N)oc12,5217,-2,-1,5.4,2,-4,-7
CS(=O)(=O)Cc1ccc(C(=O)NNC(=O)c2cc(-c3ccccc3)n[nH]2)cc1,3487,.,14,5.5,-5,-29,14
COc1nccnc1NS(=O)(=O)c1ccc(NC(=O)c2ccccc2Br)cc1,6156,0,8,3.7,-1,-10,4
CC(Sc1nnc(COc2ccc(Cl)cc2)n1Cc1ccco1)C(=O)N1CCNC1=O (configuration not stated),6367,.,0,-1.2,12,-34,-3
O=C(CCl)Nc1cc2[nH]c(=O)[nH]c2cc1Br,3947,3,25,-1.4,0,-20,22
S=c1nccc(-c2ccc3c(c2)CCO3)[nH]1,?,-3,.,.,.,1,.
COc1ccc(C2=CC3=C(Br)C(=O)C(C)(O)C(=O)C3=CO2)cc1 (configuration not stated),3596,-1,.,.,.,-16,.
COc1ccc(CN(C)C(=O)c2cc(S(=O)(=O)N3CCCCCC3)ccc2OC)cc1OC,4287,13,-8,4.8,11,5,-13
CCOCCCNC(=O)CCc1nnc2n(CCC(C)C)c(=O)c3ccccc3n12,3557,3,-3,-0.3,1,-7,5
N#Cc1ccccc1OCC(=O)NC(=O)NCc1ccccc1,4483,-2,6,-0.8,9,-20,4
CC(C)CC(=O)Nc1ccc(C(=O)CN2C(=O)NC3(CCOc4ccccc43)C2=O)cc1 (configuration not stated),4496,-2,-6,-7.3,-6,-11,-4
O=C(CN1CCN(Cc2ccccc2)CC1)N1CCCCCC1,4500,6,8,4.7,14,-29,8

Sorted by count of non-hydrogen atoms (ascending): 3 of the compounds above.
SMILES,Autofluor counter,BJeLR viability,Mtb hypoxia inh,RN4220 kill,ugtP null kill,PrP 5UTR inh,Mtb hypoxia inh growth
C/C(=N\Nc1ccc([N+](=O)[O-])cc1)c1ccc(-n2nncc2C(C)(C)C)cc1,2193,-7,.,.,.,-16,.
COc1cccc(CC(NC(C)=O)C(=O)NC2CCN(c3c4c(nc5ncnn35)CCC4)CC2)c1 (configuration not stated),4166,.,-2,-0.7,2,-25,5
CC(NC(=O)C12CC3CC(CC(C3)C1)C2)C(=O)N/N=C/C1=C(N2CCOCC2)C(=C\c2cccc([N+](=O)[O-])c2)/CC1 (configuration not stated),1858,-11,.,.,.,6,.

Next part:
SMILES,Autofluor counter,BJeLR viability,Mtb hypoxia inh,RN4220 kill,ugtP null kill,PrP 5UTR inh,Mtb hypoxia inh growth
O=C(CN(C(=O)c1ccco1)c1cccc(F)c1)NCc1ccc(F)cc1,4455,2,.,-1.4,1,-21,.
COc1ccc2nc(SCC(=O)NC3CC3)c(C#N)cc2c1,5139,-9,8,5.0,5,-15,6
COc1ccc(CC(=O)NCCN2CCOCC2)cc1,2882,-1,15,0.2,-1,-1,7
CCN(CC)CCCNc1nc(C)cc(COC)c1C#N,3418,2,13,-0.4,4,7,1
OC(CN1CCN(c2ccc(F)cc2)CC1)c1ccc(Cl)cc1 (configuration not stated),4466,-2,11,1.5,2,-8,-1
COc1ccc(-c2nnc(SCc3nc4ccccc4s3)n2C(C)C)cc1,3430,-10,45*,-17,-9,-52,5.7*
CCOC(=O)N1CCN(C(=O)C2CCN(S(=O)(=O)c3cc(C)ccc3OC)CC2)CC1,2521,-3,7,6.2,-2,-16,4
CCN(CC)S(=O)(=O)c1ccc2[nH]c(=O)cc(C(=O)NCC3CCCO3)c2c1 (configuration not stated),6487,2,10,-1.0,2,-10,16
Cc1ccc2nc(CSc3nnc(-c4ccco4)n3-c3ccccc3)cc(=O)n2c1,22931*,15,1,1.6,1,-4,-6
COc1cc2[nH]c(=S)n(Cc3ccc(C)cc3)c(=O)c2cc1OC,3886,2,13,-2.5,-53,-21,-2
Cc1ccccc1N(CC(=O)NCCc1ccccc1)C(=O)CCC(=O)Nc1ccccn1,2799,-7,2,7.1,18,-4,-1
Cc1ccc(NC(=O)CN2C(=O)NC(Cc3c[nH]c4ccccc34)C2=O)cc1S(=O)(=O)N1CCCCC1 (configuration not stated),2571,1,0,-2.7,-11,-8,4
O=C(O)CCC(=O)Nc1ccc(F)cc1,3664,-6,-8,-3.2,-2,-1,-1
COc1cc2c(cc1OC)C(c1cccc(Cl)c1Cl)CC(=O)N2 (configuration not stated),3647,6,5,2.4,11,2,10
Cn1c(CN2CCOCC2)nc2cc(NC(=O)COc3ccccc3)ccc21,4354,.,8,3.5,5,-21,4
CC(=O)n1cc([C@@H]2C=C(C(=O)N3CCOCC3)O[C@H](OCCCCO)C2)c2ccccc21,4276,-8,.,.,.,-18,.
Cc1cc(C)n(-c2nc(N(C)C)nc(N(C)C)n2)n1,11869,0,12,2.9,5,-33,1
CC(C)(C)OC(=O)N/N=C/c1cccc([N+](=O)[O-])c1,3389,2,.,.,.,-71,.
Cc1ccccc1-n1c(/C=C/c2ccccn2)nc2ccccc2c1=O,3765,2,11,3.8,4,0,7
CCOC(=O)c1c(NC(=O)CSc2nnc3c(n2)[nH]c2ccc(F)cc23)sc(C(C)=O)c1C,.,.,-4,3.3,7,-13,-5
CCCCCCCCCCC[N+](C)(C)CC/C=C1/c2ccccc2Sc2ccc(Cl)cc21,3928,-5,.,.,.,-17,.
CC(=O)c1c(C)[nH]c2ccccc2c1=O,9467,9,17,2.8,-1,-26,3
CSc1ccccc1NC(=O)COc1ccc(Cl)cc1C,2631,9,4,6.2,25,-59,5
O=C(NCc1ccc(Cl)c(Cl)c1)c1cccnc1,?,4,21,1.3,2,10,18
Clc1ccccc1CN1CCN(CCCc2ccccc2)CC1,4300,11,0,-3.0,1,-5,2
O=C1C=C(c2cccc(Cl)c2O)CC(c2ccc(F)cc2)C1 (configuration not stated),.,.,21,10.0,5,.,5
Cc1cccc2nc(-c3cccc(NC(=O)c4ccc(Cl)cc4)c3)cn12,4244,-7,-14,9.3,-1,-5,-4
O=C(NCCCN1CCOCC1)c1ccc(CS(=O)(=O)c2c(Cl)cccc2Cl)o1,6112,-10,.,-0.7,7,-16,.
Cc1ccc(OCC(=O)Nc2ccc3c4c(cccc24)CC3)c(C)c1,2836,-7,-2,0.9,-11,-21,11
